From PubChem BioAssay
VDR inhibitor – vitamin D3 receptor (human) inhibition; P11473; VDR-SRC2-3 peptide fluorescence polarization, 2 h; Potency, µM, inactives show max response, negative = inhibition, hits mostly inhibitors; hit rate 0.93% among 400,000; AID 504847; active means well fitted inhibition curve with a large enough effect; inconclusive means small, poorly fitted or top-dose-only effect, or another doubt; inactive means no such curve, though single readings can be large or run the other way; further: series mostly up to about 120 µM
Target sequence (P11473 whole entry, looked up): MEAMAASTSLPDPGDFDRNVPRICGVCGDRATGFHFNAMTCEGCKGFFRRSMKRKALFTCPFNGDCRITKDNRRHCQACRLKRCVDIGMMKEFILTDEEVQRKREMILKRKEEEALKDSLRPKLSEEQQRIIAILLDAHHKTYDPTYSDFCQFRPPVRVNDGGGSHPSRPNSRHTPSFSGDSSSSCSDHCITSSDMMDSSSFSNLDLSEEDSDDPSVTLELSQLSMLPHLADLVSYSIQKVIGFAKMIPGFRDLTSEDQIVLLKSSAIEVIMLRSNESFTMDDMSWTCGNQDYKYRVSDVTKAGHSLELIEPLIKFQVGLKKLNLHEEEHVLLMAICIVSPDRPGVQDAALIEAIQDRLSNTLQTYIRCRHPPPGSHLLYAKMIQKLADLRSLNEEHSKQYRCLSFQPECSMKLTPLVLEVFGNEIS
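Fluorescence polarization assay measuring small-molecule disruption of VDR binding to the coregulator peptide SRC2-3. Compounds were pin-transferred (23 nl) into the reagent mix and incubated 2 h at room temperature before reading.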
An asterisk follows results filed as active; & = joins results of further samples; [ ] = remark or other dose. On the % scale 0 is the no-effect control and ±100 the full control effect; potency means the concentration at half of the fitted maximal effect.

For O=C(O)CC(NC(=O)CC(c1ccccc1)c1ccccc1)c1cccc([N+](=O)[O-])c1 (stereo not drawn) the results were VDR inhibitor -14%.
`O=C(CNC(=S)NC(=O)C1CCCCC1)c1ccccc1` gave VDR inhibitor -6%.
For CN(CC(=O)Nc1cccc([N+](=O)[O-])c1)S(=O)(=O)c1ccccc1 the results were VDR inhibitor 9%.
O=C(NCc1ccccc1CN1CCCC1)c1ccc(Cl)c(N2CCCC2=O)c1 was read as VDR inhibitor 1%.
For Cc1ccc(CN(C)S(=O)(=O)c2c(C)noc2/C=C/N(C)C)cc1 the results were VDR inhibitor -8%.
`CN1C(=O)N(CC(=O)Nc2nccs2)C(=O)C12CCCCC2` gave VDR inhibitor -3%.
For CCOC(=O)C1=C(C)N=c2s/c(=C\c3ccc(OCC(=O)O)cc3)c(=O)n2C1c1ccccc1 (stereo not drawn) the results were VDR inhibitor inconclusive.
COc1ccc2oc3ccc(OC)cc3c(=O)c2c1 was read as VDR inhibitor 12%.
`O=C(COC(=O)/C=C/c1cccc([N+](=O)[O-])c1)NCCCN1CCCC1=O` gave VDR inhibitor 6%.
For O=C(NCc1cccnc1)/C(=C/c1ccccc1)NC(=O)c1ccccc1 the results were VDR inhibitor -7%.
c1cncc(-c2nc(N3CCCCCC3)c3ccccc3n2)c1 was read as VDR inhibitor -14%.
`O=C(SCC(O)C(O)CS)c1cccs1` (stereo not drawn) gave VDR inhibitor inconclusive.
Screening Cc1sc2ncn(CC(=O)N3CCCCC3)c(=O)c2c1C returned VDR inhibitor 11%.
Cc1cc(C)c2nc(N(Cc3cccnc3)C(=O)CCS(=O)(=O)c3ccccc3)sc2c1 was read as VDR inhibitor 32%[activator].
For O=C(NC1CCCC1)c1cccc(Oc2ccccc2)c1 the results were VDR inhibitor -6%.
`Cc1ccc(C(=O)N2CCN(c3ccccc3Cl)CC2)cc1[N+](=O)[O-]` gave VDR inhibitor -13%.
`O=C(CCC(=O)N1CCN(C2CCCC2)CC1)Nc1nnc(C(F)(F)F)s1` gave VDR inhibitor 2%.
Screening Cc1cc(C)c(S(=O)(=O)N(C)c2ccccc2)c(C)c1 returned VDR inhibitor 6%.
Screening CCC1CCCCN1C(=O)CCS(=O)(=O)c1ccc2c(c1)CCN2C(C)=O (stereo not drawn) returned VDR inhibitor -20%.
For COc1ccc(N(Cc2cccs2)C(=O)c2ccc(Br)o2)cc1 the results were VDR inhibitor 8%.
For CCN(CC)S(=O)(=O)c1ccc(C(=O)N2CCN(c3ncccn3)CC2)cc1 the results were VDR inhibitor 3%.
c1coc(-c2nnc3sc(C4CCCCC4)nn23)c1 was read as VDR inhibitor -18%.
CCNC(=S)NNC(=O)c1cc(-c2cccc(OC)c2)nc2ccccc12 was read as VDR inhibitor -19%.
For CCOC(=O)c1cnc2c(cnn2C)c1NCCC(O)C(F)(F)F (stereo not drawn) the results were VDR inhibitor -4%.
For Cc1ccc(NC2CCCN(C(=O)c3ccc(-n4ccnc4)cc3)C2)cc1C (stereo not drawn) the results were VDR inhibitor -11%.
For CN(Cc1ccccc1)c1nnc(NC(=O)Nc2cccc(Br)c2)s1 the results were VDR inhibitor 3%.
CCOc1ccc(-c2nn3c(-c4ccc(F)cc4)nnc3s2)cc1 was read as VDR inhibitor 3%.
For CCc1c(O)nc(SCC(=O)Nc2nc3ccccc3s2)n(-c2ccc(C)cc2)c1=O the results were VDR inhibitor -8%.
For CC1(c2cccc(Br)c2)NC(=O)N(CC(=O)Nc2ccc3c(c2)OCCO3)C1=O (stereo not drawn) the results were VDR inhibitor 14%.
COc1ccc(C(=O)OCc2c(C)noc2C)cc1 was read as VDR inhibitor -13%.
For CCCS(=O)(=O)c1nc(S(=O)(=O)c2ccc(C)cc2)c(NCc2ccco2)s1 the results were VDR inhibitor 14%.
`Cc1ccc(/C=C2\SC(=S)N(CCCC(=O)N3CCOCC3)C2=O)cc1` gave VDR inhibitor -3%.
For CC1CN(CCOCCSc2ccc(Cl)cc2)CC(C)O1 (stereo not drawn) the results were VDR inhibitor -13%.
`CN1CCN(CC(=O)NC2CCCCC2)CC1` gave VDR inhibitor 7%.
For COC(=O)CCCC(=O)N1CCCC(N(C)CCc2ccccc2)C1 (stereo not drawn) the results were VDR inhibitor -9%.
For Cc1nnc(SCC(=O)NNC(=O)c2ccco2)n1-c1cccc(Cl)c1 the results were VDR inhibitor -13%.
For O=C(NCc1ccccc1)c1ccc(CS(=O)(=O)c2c(Cl)cccc2Cl)o1 the results were VDR inhibitor -19%.
For CN(C(=O)CSc1nnc(Cc2ccccc2F)n1N)C1CCCCC1 the results were VDR inhibitor 19%.
COc1ccc(CCC(=O)N2c3ccccc3CC2C)cc1 (stereo not drawn) was read as VDR inhibitor -3%.
`O=C(NCCCN1CCOCC1)/C(=C/c1cccnc1)NC(=O)c1ccccc1` gave VDR inhibitor -15%.
COC(=O)COc1ccc(S(=O)(=O)N2CCCCCC2)cc1 was read as VDR inhibitor -12%.
CN(Cc1ccncc1)C1CC(=O)N(c2ccc(F)cc2)C1=O (stereo not drawn) was read as VDR inhibitor -7%.
Screening CC1(C)COC(c2cc3c(cc2Br)OCO3)OC1 returned VDR inhibitor -6%.
Screening Cc1cn(CC(=O)NCc2ccccc2)c(=O)[nH]c1=O returned VDR inhibitor -6%.
CC(=O)Nc1ccc(NC(=O)CSc2nnc(CC(C)O)n2-c2ccccc2)cc1 (stereo not drawn) was read as VDR inhibitor -12%.
`C/C(=N\NC(=O)c1nnn(-c2nonc2N)c1CN(C)c1ccccc1)c1ccccn1` gave VDR inhibitor 8%.
For CC(O)CNc1nc2c(c(=O)n(Cc3ccc(Cl)cc3)c(=O)n2C)n1C (stereo not drawn) the results were VDR inhibitor 6%&1%.
O=C1CCCC2=C1C(c1cccs1)n1nc(SCc3ccc(C(=O)O)cc3)nc1N2 (stereo not drawn) was read as VDR inhibitor 21%.
Screening Cc1cc(=O)oc2cc(Nc3ccccc3)ccc12 returned VDR inhibitor -8%.
Screening COc1ccc(N(CC(=O)Nc2ccc(C)cn2)S(=O)(=O)c2c(C)noc2C)cc1 returned VDR inhibitor -7%.
`COc1ccc(C(C)=O)cc1CSc1nnc(C)s1` gave VDR inhibitor -2%.
`O=C(c1cccc(S(=O)(=O)Nc2ccccc2Cl)c1)N1CCN(C(=O)c2ccco2)CC1` gave VDR inhibitor -1%.
For CCOC(=O)C1CCN(Cc2coc3c(Cl)cc(Cl)cc3c2=O)CC1 the results were VDR inhibitor -13%.
CN(CC1CCOCC1)C(=O)CC1C(=O)NCCN1Cc1ccc(F)c(F)c1 (stereo not drawn) was read as VDR inhibitor 0%.
Screening Cc1c(C(=O)NN)nn(-c2ccc(F)cc2)c(=O)c1C#N returned VDR inhibitor 4%.
O=C(c1cc([N+](=O)[O-])ccc1N1CCOCC1)N1CCCCC1 was read as VDR inhibitor 1%.
Screening COc1ccc(N=C2S/C(=C\c3ccc(OC(C)C(=O)O)c(OC)c3)C(=O)N2CCc2c[nH]c3ccccc23)cc1 (stereo not drawn) returned VDR inhibitor 40µM*.
`Cc1cc(C)c2c(c1)C1C=CCC1C(c1ccc(S(=O)(=O)N3CCOCC3)cc1)N2` (stereo not drawn) gave VDR inhibitor 11%.
For COc1cccc(-c2nn(-c3ccccc3)cc2C(=O)n2nnc3ccccc32)c1 the results were VDR inhibitor -15%.
O=C(NCc1ccco1)c1ccc(Cl)cc1[N+](=O)[O-] was read as VDR inhibitor -14%.
Screening COc1ccc(-n2c3c(cc(C(=O)NCc4ccco4)c2=O)C(=O)CC(C)(C)C3)cc1 returned VDR inhibitor 8%.
N#C/C(=C\C=C\c1ccccc1)C(=O)NCc1cccnc1 was read as VDR inhibitor inconclusive.
Screening CCC1Nc2ncnc(N3CCCCC3)c2N(Cc2ccc(Cl)cc2)C1=O (stereo not drawn) returned VDR inhibitor -3%.
COc1ccccc1C(CNC(=O)CN1C(=O)NC(C)(c2ccc3ccccc3c2)C1=O)N1CCCC1 (stereo not drawn) was read as VDR inhibitor -5%.
For COCCNC(=O)c1ccc(C)c(NC(=O)C2=C(C)OCCS2)c1 the results were VDR inhibitor -14%.
`COc1ccc2nc(NC(=O)c3ccc(S(=O)(=O)N4CCC(C)CC4)cc3)sc2c1` gave VDR inhibitor 9%.
`Cc1ccccc1C(=O)NNC(=O)CCc1ccccc1` gave VDR inhibitor -1%.
CCCNC(=O)CCn1c(=S)oc2ccccc21 was read as VDR inhibitor inconclusive.
O=C1CSC(=Nc2ccc(Cl)cc2)N1Cc1ccco1 was read as VDR inhibitor -15%.
`Cc1cc(=O)n2nc(N3CCCC(C(=O)NCc4cccc(Br)c4)C3)sc2n1` (stereo not drawn) gave VDR inhibitor -5%.
`CC1CCc2sc(C(=O)NCC(c3ccco3)N3CCCCC3)cc2C1` (stereo not drawn) gave VDR inhibitor inconclusive.
`O=C(Nc1ccc(S(=O)(=O)N(Cc2ccccc2)c2ccccc2)cc1)c1ccc([N+](=O)[O-])cc1` gave VDR inhibitor 0%.
CCC(=O)NCCCCNC(=O)CC was read as VDR inhibitor -6%.
For CC(C)OC(=O)c1cccc(C(=O)OCc2ccco2)n1 the results were VDR inhibitor -10%.
Cc1cc(NN)nc(NS(=O)(=O)c2ccccc2Cl)n1 was read as VDR inhibitor -5%.
Screening COc1ccc(/C=C2\SC(=N)N(c3nccs3)C2=O)cc1OC returned VDR inhibitor -26%.
COc1ccc(N=Nc2nc3ccc(Br)cc3n2C)cc1 was read as VDR inhibitor -8%.
Screening Cc1onc(-c2ccccc2)c1C(=O)OCC(=O)N(CC(C)C)c1c(N)n(Cc2ccccc2)c(=O)[nH]c1=O returned VDR inhibitor 10%.
Cc1ccccc1CSCC(=O)c1c(N)n(CC(C)C)c(=O)n(C)c1=O was read as VDR inhibitor 1%.
`COc1cccc2c(=O)n(CC(=O)N3CCCCC3)ccc12` gave VDR inhibitor -14%.
`COc1ccc2c(c1)O[C@@H](c1ccc3c(c1)OCO3)[C@H](OC(=O)Nc1cc(OC)c(OC)c(OC)c1)C2=O` gave VDR inhibitor -11%.
COc1ccc(Br)cc1CNC(=O)CCSCc1ccc(C)cc1 was read as VDR inhibitor 5%.
`Cc1cc(C)c2c(N)c(C(=O)Nc3ncc(C)s3)sc2n1` gave VDR inhibitor 5%.
C/C(CC(=O)Nc1ccc2c(c1)OCCO2)=N\NC(=O)C(=O)Nc1ccccc1C was read as VDR inhibitor -6%.
`O=C(COc1cccnc1[N+](=O)[O-])Nc1ccccc1Sc1ccccc1` gave VDR inhibitor -6%.
`N#Cc1ccc(C(=O)OCCCc2cc3ccccc3c(=O)o2)cc1` gave VDR inhibitor -2%.
Screening COCCN(CC(=O)Nc1ccc(F)cc1)S(=O)(=O)c1ccc(S(=O)(=O)N2CCCC2)cc1 returned VDR inhibitor 11%.
For CCOC(=O)c1ccc(/C=C2/C=C(c3ccccc3)N(c3ccc(Cl)c(C(=O)O)c3)C2=O)cc1 the results were VDR inhibitor inconclusive.
For Cc1ccc(S(=O)(=O)N(CCCc2c(C)nc[nH]c2=O)c2ccccc2)cc1 the results were VDR inhibitor -17%.
Screening Cc1ccccc1Cn1nc(C)c(NC(=O)C(F)(F)F)c1C returned VDR inhibitor -17%.
For CC(OC(=O)c1ccc(NS(=O)(=O)c2ccc3[nH]c(=O)[nH]c3c2)cc1)C(=O)Nc1cccc(Cl)c1Cl (stereo not drawn) the results were VDR inhibitor 44%[activator].
Screening Cc1nc2ccccc2c(=O)n1-c1ccc(NS(=O)(=O)c2ccccc2)cc1 returned VDR inhibitor -1%.
For Cc1sc2ncnc(NCc3cccnc3)c2c1C the results were VDR inhibitor 8%.
For CCOC(=O)N1CCN(C(=O)COc2ccc(Cl)c(C)c2)CC1 the results were VDR inhibitor 15%.
`CN1C(=O)N(C)C2=NNC=NC2(O)C1=O` (stereo not drawn) gave VDR inhibitor -16%.
`CCOC(=O)c1sc2ncn(/N=C/c3ccc(O)cc3)c(=O)c2c1C` gave VDR inhibitor -8%.
For COC(=O)c1ccc(/C=N/NC(=O)c2ccccc2Cl)cc1 the results were VDR inhibitor 11%.
Cn1cnnc1Sc1ccc(C(F)(F)F)cc1[N+](=O)[O-] was read as VDR inhibitor 9%.
For O=S(=O)(c1ccccc1)N(Cc1ccccc1)c1ccccn1 the results were VDR inhibitor 3%.
For Cn1c(=O)c2c(SCc3ccccn3)nc(CC(C)(C)C)nc2n(C)c1=O the results were VDR inhibitor -6%.
`COC1C(O)C(CO)OC1n1cnc2c(NC3CCCCC3)ncnc21` (stereo not drawn) gave VDR inhibitor 7%.

Entries above that have an aryl thioether with sulfur outside any ring (ten):
For CCc1c(O)nc(SCC(=O)Nc2nc3ccccc3s2)n(-c2ccc(C)cc2)c1=O the results were VDR inhibitor -8%.
For CC1CN(CCOCCSc2ccc(Cl)cc2)CC(C)O1 (stereo not drawn) the results were VDR inhibitor -13%.
For Cc1nnc(SCC(=O)NNC(=O)c2ccco2)n1-c1cccc(Cl)c1 the results were VDR inhibitor -13%.
For CN(C(=O)CSc1nnc(Cc2ccccc2F)n1N)C1CCCCC1 the results were VDR inhibitor 19%.
CC(=O)Nc1ccc(NC(=O)CSc2nnc(CC(C)O)n2-c2ccccc2)cc1 (stereo not drawn) was read as VDR inhibitor -12%.
O=C1CCCC2=C1C(c1cccs1)n1nc(SCc3ccc(C(=O)O)cc3)nc1N2 (stereo not drawn) was read as VDR inhibitor 21%.
`COc1ccc(C(C)=O)cc1CSc1nnc(C)s1` gave VDR inhibitor -2%.
`O=C(COc1cccnc1[N+](=O)[O-])Nc1ccccc1Sc1ccccc1` gave VDR inhibitor -6%.
Cn1cnnc1Sc1ccc(C(F)(F)F)cc1[N+](=O)[O-] was read as VDR inhibitor 9%.
For Cn1c(=O)c2c(SCc3ccccn3)nc(CC(C)(C)C)nc2n(C)c1=O the results were VDR inhibitor -6%.

The list is partial; the hit share may differ from the screen's.
